Screening data as filed in PubChem.
PK Bst – pyruvate kinase (B. stearothermophilus) modulation | partly purified Bacillus stearothermophilus pyruvate kinase, luminescence ATP production; ribose 5-phosphate activator present at AC10 | Potency, µM | actives 1.2% (n = 51,000) | AID 361; in the data active means potency below about 11 µM; inconclusive means mostly about 12 µM to 25 µM; inactive means weaker than that;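 the screen sought inhibitors and activators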;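 further: potency means the concentration at half of the fitted maximal effect; scaled between full activation by ribose 5 phosphate and full inhibition by luteolin; about four in five hits inhibit and the cells do not say which; series up to 57 µM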
TsaE inh – inhibitors of E. coli YjeE (TsaE). Potency, µM. P0AF67. AID 605. purified YjeE, fluorescence polarisation of a bound ADP probe. actives 0.05% (n = 71,000); active = well fitted falling curve; inconclusive = weaker or top-dose-only fall, or a rising curve; inactive = flat or poorly fitted curve;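 further: top concentration of the series not given in the record; excess ADP was the control for the full effect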
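Fluorescence polarization of a BODIPY Texas Red–ADP probe (2 uM) bound to purified YjeE (10 uM) was read after 15 min room-temperature incubation with compounds. Loss of polarization marks inhibitors; ADP serves as titrated control.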
An asterisk follows results filed as active; i = inactive; ? = inconclusive; nt = not tested or not shown. A portion of the library (hit frequency here may not be typical).

Sample of the layout:
TsaE inh	PK Bst	mol
i	>57	CCOC(=O)CSC1=C(C#N)C(c2ccco2)C(C(=O)OCc2ccccc2)=C(C)N1 (stereo not drawn)
i	>57	CCOc1ccc(-c2nnn(CC(=O)NCc3cccs3)n2)cc1
i	>57	CCCCCCNC(=O)CC(NS(=O)(=O)c1ccc(NC(C)=O)cc1)C(C)C (stereo not drawn)
i	nt	CCCCC(NS(=O)(=O)c1ccc(OC)cc1)C(=O)O (stereo not drawn)
i	>57	CN(CC(=O)NC(=O)NCc1ccco1)Cc1nc2ccccc2c(=O)[nH]1
i	nt	CC(=O)Nc1nonc1-c1ccccc1

This part in full, repeating the preview:
TsaE inh	PK Bst	mol
i	>57	CCOC(=O)CSC1=C(C#N)C(c2ccco2)C(C(=O)OCc2ccccc2)=C(C)N1 (stereo not drawn)
i	>57	CCOc1ccc(-c2nnn(CC(=O)NCc3cccs3)n2)cc1
i	>57	CCCCCCNC(=O)CC(NS(=O)(=O)c1ccc(NC(C)=O)cc1)C(C)C (stereo not drawn)
i	nt	CCCCC(NS(=O)(=O)c1ccc(OC)cc1)C(=O)O (stereo not drawn)
i	>57	CN(CC(=O)NC(=O)NCc1ccco1)Cc1nc2ccccc2c(=O)[nH]1
i	nt	CC(=O)Nc1nonc1-c1ccccc1
i	nt	Cn1c(=O)c(-c2ccc(F)cc2)nc2cnc(Nc3ccccc3)nc21
i	nt	NC1(C(=O)O)C[C@H](C(=O)O)[C@H](C(=O)O)C1 (stereo partly drawn)
i	>57	Cn1c(Nn2cnnc2)nc2ccccc21
i	nt	COc1ccc(C(=O)Nc2ccc(Cl)cc2C(=O)NCc2ccco2)cc1OC
i	nt	COCCn1c(=O)c(-c2cccc(C#N)c2)nc2cnc(N(C)C)nc21
i	nt	COCCCNC(=O)CCCOc1ccccc1
i	>57	COc1ncnc2c1N=C1CC(C)(C)CC(N)=C1S2
i	>57	CCOC(=O)N1CCN(c2cc3nccnc3cc2F)CC1
i	>57	Cc1ccc(C(=O)CC2(O)C(=O)N(Cc3ccccc3)c3ccccc32)o1 (stereo not drawn)
i	nt	CCC(=O)Nc1ccc(C(=O)n2nc(C)cc2C)cc1
i	>57	O=S(=O)(c1ccc(OCc2nc3ccccc3s2)c(Cl)c1)N1CCOCC1
nt	>26	N/C(CCN1CCCCC1)=N/O
i	nt	CNC(=O)c1c(NC(=O)c2ccc(S(=O)(=O)N3CCOCC3)cc2)sc2c1CCC2
i	>57	COc1nc(N)nc(N2CCOCC2)n1
i	>57	COc1ccc(CNS(=O)(=O)c2ccc(C3CNC(=O)C3)cc2)cc1 (stereo not drawn)
i	>57	NC(=O)CSc1nnnn1-c1ccc(OC(F)(F)F)cc1
i	nt	O=C(NCc1cccs1)c1ccccc1F
i	>57	COc1ccccc1-c1cc(C(F)(F)F)nc(S(=O)(=O)CCCC(=O)N2CCOCC2)n1
i	>57	O=C(N1CCOCC1)N(Cc1cccs1)C1CCCC1
i	>57	CCOC(=O)c1c(-c2ccc(C)o2)csc1NC(=O)CSc1nnc(C)s1
i	nt	O=C(NCc1ccco1)c1cc2nc(-c3cccs3)cc(C(F)(F)F)n2n1
i	>57	CCOC(=O)c1csc(NC(=O)c2ccc(OC)c(OC)c2)n1
i	i	Cc1c(C(N)=O)sc2nc(-c3ccccc3)cn12
i	>57	COCCN(CC(=O)NCc1ccccc1)C(=O)CCC(=O)Nc1nccs1
i	>57	O=C(COc1ccc(Cl)cc1Cl)N(Cc1ccco1)C1CCS(=O)(=O)C1 (stereo not drawn)
i	>57	COc1ccccc1N1CCN(Cc2nc(N)nc(Nc3ccccc3)n2)CC1
i	>57	Cc1nnc(SCCn2c(N3CC(C)CC(C)C3)nc3c2c(=O)[nH]c(=O)n3C)s1 (stereo not drawn)
i	>57	CCOC(=O)C1CCN(C(=O)N(C)C)CC1
i	>57	COC(=O)c1cc(CC(=O)c2ccc(O)cc2O)c(C)o1
i	>57	O=C(O)CCc1ccc(-c2ccc(F)cc2)n1CC(=O)O
i	?	COc1cc(C)c(S(=O)(=O)N2CCCC2)cc1C
i	?	Cc1cc(C)c(S(=O)(=O)N(CC(=O)NCc2cccnc2)C2CCCCC2)c(C)c1
i	nt	CC1(C)Cc2ccccc2-c2nc(NCCCO)n(-c3ccccc3)c(=O)c21
nt	>26	Cc1cc(C)nc(NC2=NCC(=O)N2c2ccc(Cl)cc2)n1
i	>57	CCCC(=O)N1CCN(c2ccc(NC(=O)c3cc4ccccc4o3)cc2)CC1
i	>57	CSc1ccc(C(=S)N2CCN(CCO)CC2)cc1
nt	>26	CC(NC(=O)Nc1ccc(O)cc1)(C(F)(F)F)C(F)(F)F
i	>57	O=C(N1CCOCC1)N1CCN(CC(O)COc2ccc3ccccc3c2)CC1 (stereo not drawn)
i	nt	CN(C)CCN1C(=O)C(=O)/C(=C(/O)c2ccc(S(=O)(=O)N3CCOCC3)cc2)C1c1ccccc1 (stereo not drawn)
i	nt	CC(=O)Nc1ccc(OC(F)(F)C(F)C(F)(F)F)c(NC(C)=O)c1 (stereo not drawn)
i	>57	CN1C(=O)SC(Nc2ccc(F)cc2)C1=O (stereo not drawn)
i	>57	CCCCn1c(N)c(N(CCC(C)C)C(=O)CSc2nnc3ccccn23)c(=O)[nH]c1=O
i	>57	O=C(c1ccco1)n1nc(-c2ccccc2)nc1NCc1ccco1
i	>57	O=C(NC1CC1)C1CCC(=O)N1C1CCCC1 (stereo not drawn)
i	>57	CCN(CCNC(=O)C1CCN(S(=O)(=O)CC)CC1)c1ccccc1
i	nt	CC12C(=O)N(c3cccc4cccnc34)C(=O)C1C1C=CC2C1 (stereo not drawn)
nt	>11	CN1CCCN(C(c2ccccc2)c2ccc(Cl)cc2)CC1 (stereo not drawn)
i	>57	CCC(C)Nc1nc2c(c(=O)[nH]c(=O)n2C)n1CCC(C)C (stereo not drawn)
i	>57	COc1ccc(CCNC(=O)CSc2nc(N)c(C#N)c(-c3cccs3)c2C#N)cc1OC
i	>57	Cc1ccccc1OCCCC(=O)Nc1nccs1
i	>57	CCCCCCNC(=O)C(C#N)c1nc2ccccc2nc1N1CCOCC1 (stereo not drawn)
i	nt	O=C(O)CCC(=O)N1CCc2cc(S(=O)(=O)Nc3ccc4c(c3)OCCO4)ccc21
i	nt	Cc1cccc(NC(=O)C2CCCN(S(=O)(=O)c3c(C)nn(C)c3C)C2)n1 (stereo not drawn)
i	>57	Nn1c(SCC(=O)NC(=O)NCc2ccccc2)nnc1C1CC1

Following part:
TsaE inh	PK Bst	mol
i	nt	CC(C)C[C@@H](CC(=O)N[C@H](CC(=O)N[C@@H]1CCNC[C@H]1C(=O)N[C@H](CC(=O)N[C@@H](CCC(=O)O)CC(=O)O)CC(C)C)C(C)C)NC(=O)[C@@H]1CCCC[C@H]1N
i	>57	O=C(NCc1ccco1)c1sc2cccc(F)c2c1Cl
nt	>11	CC1(C)NC(=O)N(CC(O)Cn2nnc3ccccc32)C1=O (stereo not drawn)
i	nt	Cc1cccn2cc(-c3ccc(S(=O)(=O)N4CCOCC4)cc3)nc12
i	>57	COCCOC(=O)C1=C(C)N=C2SCCC(=O)N2C1c1ccc(C(=O)OC)cc1 (stereo not drawn)
nt	>26	CN1C2C=C3C(C#N)=C(N)C(C#N)(C#N)[C@@H](c4cccs4)C3C1CC2 (stereo partly drawn)
i	>57	O=C(CSc1nnc(C2CCCCC2)o1)N1CCCCC1
nt	>26	O=C1C(=O)N(CCCn2ccnc2)C(c2ccccn2)/C1=C(/O)c1ccccc1 (stereo not drawn)
i	>57	COc1cc(CNc2nc3ccccc3[nH]2)cc(OC)c1OC
i	>57	CCCC(=O)N1CCN(c2ccc(NC(=O)c3cc4ccccc4o3)cc2Cl)CC1
i	nt	CN(C)c1ncc2nc(-c3ccc(F)cc3)c(=O)n(C3CC3)c2n1
i	nt	Cc1ccc(S(=O)(=O)N(C)Cc2nc(-c3ccc(Br)cc3)no2)cc1
i	nt	CCN(CC)CC(=O)Nc1ccc(-c2nc3cc(NC(=O)CN(CC)CC)ccc3o2)cc1
i	>57	CCOC(=O)N1CCC(NC(=O)C2CCCN(S(=O)(=O)c3cccc4nsnc34)C2)CC1 (stereo not drawn)
i	>57	O=C1c2[nH]nc(-c3ccccc3O)c2C(c2ccccc2F)N1Cc1ccco1 (stereo not drawn)
i	nt	CNc1ncncc1-c1ccccc1C
i	>57	CC(=O)NC1C(=O)SC1(C)C (stereo not drawn)
i	>57	CCNc1nc(NCc2ccccc2)nc(Oc2ccc(=O)[nH]n2)n1
i	i	c1ccc2c(c1)C(=Nn1cnnc1)c1ccccc1-2
i	>57	CN(C)CCOC(=O)CCc1ccccc1
i	>57	c1ccc(C2CC(c3ccccc3)n3ncnc3N2)cc1 (stereo not drawn)
i	>57	CC(=O)N1CCC2(CC1)CC(=O)c1cc(OCC(=O)NCc3ccco3)ccc1O2
i	nt	NC=O
i	>57	O=c1cc(CSc2ccc(Cl)cc2)nc(N2CCCCC2)[nH]1
i	>57	Cc1nnc(NC(=O)CCCN2C(=O)c3ccccc3C2=O)s1
i	>57	CS(=O)(=O)N(CC(=O)NCc1ccco1)c1ccc2c(c1)OCO2
i	>57	CCNC(=O)CC1C(=O)N(c2ccccc2)C(=O)N1CCC(C)C (stereo not drawn)
i	>57	CC(C)C(=O)Nc1cccc(C(=O)Nc2nncs2)c1
i	>57	CC(=O)c1cc2c(cc1NC(=O)CCCC(=O)O)OCO2
i	>57	O=S(=O)(c1ccc(SCCO)nc1)N1CCCC1
i	>57	CCC(=O)OCCn1c(Br)nc2c1c(=O)[nH]c(=O)n2C
i	nt	CCC(=O)N1CCN(c2nc(-c3ccccc3)c3c(c2C#N)CCCC3)CC1
i	>57	CCOC(=O)CCC(=O)NCc1ccc2c(c1)cc(C)n2C
i	nt	Cc1nc(NCc2ccccc2)c2nc(-c3ccccc3)n(C(C)CN(C)C)c2n1 (stereo not drawn)
i	>57	CCC(=O)c1ccc(OCC(O)CN(C)C2CCCCC2)cc1 (stereo not drawn)
i	>57	O=C(CCN1CCCCCC1)Nc1cccc(Cl)c1
i	nt	CCOC(=O)N1CCC(N2Cc3cccc(C(=O)NC(C)c4ccc5c(c4)OCCO5)c3C2=O)CC1 (stereo not drawn)
i	>57	CC(CN1CCCCC1)OC(=O)c1ccc(Cl)cc1Cl (stereo not drawn)
i	>57	O=C(c1ccco1)N1CCN(C(=O)c2ccccc2OC(=O)C23CC4CC(CC(C4)C2)C3)CC1
?	>57	CC1Cc2ccccc2N1S(=O)(=O)c1cccs1 (stereo not drawn)
i	nt	Cc1nc2sc3c(c2c(=O)[nH]1)CCCC3
i	>57	COCc1cc(C)nc(SCC(=O)Nc2cccc(C)c2C)c1C#N
i	>57	CC(C)c1ccc(S(=O)(=O)N2CCN(CC(=O)Nc3ccc4c(c3)OCO4)CC2)cc1
i	nt	COc1ccc(CN2CCN(c3cccc(C)c3C)CC2)cc1OC
i	>57	CCS(=O)(=O)N1CCC(c2nc(-c3ccc(C(F)(F)F)cc3)no2)CC1
i	>57	CC1CCCCN1C(=O)C1CC(c2ccc(F)cc2)=NO1 (stereo not drawn)
i	>57	O=C(c1c(F)c(F)c(F)c(F)c1F)N1CCc2ccccc21
i	nt	Cn1cnnc1SCc1ccc(-c2ccc(Br)cc2)o1
i	nt	CCCc1cc2c(n1CCc1ccc(Cl)cc1)C(C)C1CN(C(=O)c3ccccc3)C(C)(C(=O)OC)C21 (stereo not drawn)
i	?	CCN1C(=O)/C(=C2\SC(N3CCCCC3)=NC2=O)c2ccccc21
i	>57	COc1cc(SC)ccc1C(=O)NCC1CCCO1 (stereo not drawn)
i	>57	Cc1ccc2c(c1)nnn2C1CCN(CC(=O)Nc2ccc3c(c2)OCCO3)CC1
i	>57	Cc1cccc(C)c1NC(=O)c1ccc(-n2cnnn2)cc1
i	nt	COc1ccc(-c2nc3cnc(OC)nc3n(C3CC3)c2=O)cc1
i	>57	CCOC(=O)CNC(=O)C(Cc1ccccc1)NS(=O)(=O)c1cccs1 (stereo not drawn)
i	nt	Cc1cc(C2(c3cc(C)c(O)cc3C)OS(=O)(=O)c3ccccc32)c(C)cc1O
i	>57	Cc1cc(C)nc(N2C(=O)CC(C(C)c3ccccc3)C2=O)n1 (stereo not drawn)
i	>57	CCC(=O)Nc1c2c(nn1-c1ccc(C)cc1C)CSC2
i	nt	CCN(Cc1ccccc1)Cc1c(F)cccc1F
i	>57	COc1cccc(NC(=O)c2oc3ccccc3c2NC(=O)C2CC2)c1

Next section
TsaE inh	PK Bst	mol
i	>57	COC(=O)c1ccc(NC(=O)CSc2nnc(COc3ccccc3)n2C)cc1
i	nt	O=c1c2c3c(sc2n2cnnc2n1CCc1ccccc1)CCCC3
i	nt	COC(=O)c1ccc(C(NC(=O)OCc2ccccc2)/C(F)=C/[C@@H](C)C(=O)N[C@@H](CO)Cc2ccccc2)cc1 (stereo partly drawn)
i	>57	COCC(C)NC(=O)NC1(C(F)(F)F)Oc2ccc(Cl)cc2O1 (stereo not drawn)

Nothing new here: an excerpt of the list.
TsaE inh	PK Bst	mol
i	nt	Cc1cc(C2(c3cc(C)c(O)cc3C)OS(=O)(=O)c3ccccc32)c(C)cc1O
i	>57	Cc1cc(C)nc(N2C(=O)CC(C(C)c3ccccc3)C2=O)n1 (stereo not drawn)
i	>57	CCC(=O)Nc1c2c(nn1-c1ccc(C)cc1C)CSC2
i	nt	CCN(Cc1ccccc1)Cc1c(F)cccc1F
i	>57	COc1cccc(NC(=O)c2oc3ccccc3c2NC(=O)C2CC2)c1
i	>57	COC(=O)c1ccc(NC(=O)CSc2nnc(COc3ccccc3)n2C)cc1
